High-throughput results from PubChem BioAssay.
Vaccinia inh: blocks a specific stage of Vaccinia orthopoxvirus infection | Vaccinia-infected cells, mCherry/Venus stage reporter fluorescence; stronger effect = lower value; some inactives read as strong as hits | activity change (mCherry), % (no concentration beside the values) | 89,000 tested, 0.01% active;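 active = mCherry past -33% and 40 or more points under the early reporter, replicates agreeing; inconclusive = past -33% without that gap or agreement; tested in A549 cells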;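 note: scaled between vehicle wells and reference inhibitor wells; 23 nL library stock went into each well; one replicate is shown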
Vaccinia inh Venus: also measured in Vaccinia inh; calls as there; activity change (Venus), %; measured here: Venus reporter, other viral stage;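 negative = less Venus signal; first of two replicates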
* = called active by the depositor; ? = inconclusive; . = not tested or not shown; & = joins results of further samples.

SMILES,Vaccinia inh,Vaccinia inh Venus
COc1cccc(NC(=O)N(C)C[C@@H]2Oc3ncc(C#Cc4ccncc4)cc3C(=O)N([C@H](C)CO)C[C@H]2C)c1,-6.3,7.7
COCC#Cc1ccc2c(c1)O[C@H](CN(C)Cc1ccccc1F)[C@H](C)CN([C@H](C)CO)S2(=O)=O,-13.5,-11.0
C[C@@H]1CN([C@H](C)CO)C(=O)Cc2cc(NC(=O)CCC(F)(F)F)ccc2O[C@H]1CN(C)C(=O)Nc1ccc2c(c1)OCO2,0.8,17.1
Cc1ccc(OC(=O)N(C)C[C@@H]2OCc3cnnn3CCCC(=O)N([C@@H](C)CO)C[C@H]2C)cc1,5.7&10.7,-1.0&12.8
O=C(C1CCOCC1)N1CC2(C1)[C@H](c1ccccc1)[C@@H](CO)N2Cc1ccc(Cl)cc1,19.3,15.4
CC(C)C#Cc1ccc2c(c1)O[C@@H](CN(C)C(=O)CN(C)C)[C@H](C)CN([C@@H](C)CO)S2(=O)=O,-11.0,-8.9
C[C@@H]1CCCCO[C@@H](CN(C)Cc2ccccc2)[C@H](C)CN([C@H](C)CO)C(=O)c2cc(NS(=O)(=O)c3cn(C)cn3)ccc2O1,17.0,7.9
C[C@H]1CN([C@@H](C)CO)C(=O)c2cc(NC(=O)Nc3ccc(C(F)(F)F)cc3)ccc2O[C@H]1CN(C)Cc1ccc(C(=O)Nc2ccccc2N)cc1,3.3,-3.1
C[C@H](CO)N1C[C@H](C)[C@H](CN(C)S(=O)(=O)c2ccc(Oc3ccccc3)nc2)OCc2cnnn2CCCC1=O,-17.5,-15.4
C[C@H](CO)N1C[C@H](C)[C@H](CN(C)S(C)(=O)=O)Oc2ccc(NC(=O)CCC(F)(F)F)cc2C1=O,2.9,-1.7
COc1ccccc1CNC(=O)C[C@@H]1CC[C@@H]2[C@H](COc3ccc(NC(=O)Nc4ccc(F)c(F)c4)cc3C(=O)N2C)O1,?,.
O=C(CN1CCOCC1)NCC[C@@H]1CC[C@H](NC(=O)Nc2ccc(C(F)(F)F)cc2)[C@H](CO)O1,-6.2,-3.9
C[C@@H]1CN([C@@H](C)CO)C(=O)Cc2cc(NC(=O)Nc3ccccc3)ccc2O[C@H]1CN(C)Cc1ccc(Cl)c(Cl)c1,?,.
COc1cccc(NC(=O)N2CC(=O)N3[C@H](C2)[C@@H](c2ccc(C#CC4CCCC4)cc2)[C@@H]3CO)c1,-18.9,-18.1
CCC(=O)Nc1ccc2c(c1)OC[C@@H](C)N(C(=O)C1CCC1)C[C@H](C)[C@H](OC)CN(C)C2=O,2.4,3.3
COc1ccc(S(=O)(=O)N(C)C[C@H]2Oc3ccc(NS(C)(=O)=O)cc3CC(=O)N([C@@H](C)CO)C[C@@H]2C)cc1,3.9,-3.3
C[C@@H]1CN([C@H](C)CO)C(=O)CCCn2cc(nn2)CO[C@@H]1CN(C)S(=O)(=O)c1cccs1,4.5,-8.1
Cc1noc(C)c1NC(=O)N[C@@H]1CC[C@H](CCNC(=O)C2CCCCC2)O[C@@H]1CO,6.6,3.9
CO[C@H]1CN(C)C(=O)c2cc(NC(C)=O)ccc2OC[C@H](C)N(Cc2ccncc2)C[C@H]1C,15.5,9.5
O=C(c1ccc(F)cc1)N1CCCCN2[C@H](CO)[C@H](c3ccc(/C=C/c4ccccc4)cc3)[C@H]2C1,?,.
C[C@@H]1CN([C@H](C)CO)C(=O)Cc2cc(NC(=O)Nc3ccccc3)ccc2O[C@@H]1CN(C)CC1CCCCC1,-23.4,-16.2
Cc1ccccc1S(=O)(=O)N1CC(=O)N2[C@H](C1)[C@@H](c1ccc(C#CCC(C)C)cc1)[C@@H]2CO,-34.7,-26.7
CC(C)NC(=O)N(C)C[C@@H]1Oc2ccc(NS(=O)(=O)c3ccccc3)cc2C(=O)N([C@@H](C)CO)C[C@@H]1C,9.9,5.2
Cc1cccc(-c2ccc([C@H]3[C@@H](CO)N4CCCCN(Cc5cncnc5)C[C@@H]34)cc2)c1,-33.3,-38.2
CO[C@@H]1CN(C)C(=O)c2cc(NC(=O)C3CC3)ccc2OC[C@H](C)N(CCC(F)(F)F)C[C@H]1C,-4.8,3.4

Three records drawn at random from those above, as already listed:
SMILES,Vaccinia inh,Vaccinia inh Venus
CO[C@H]1CN(C)C(=O)c2cc(NC(C)=O)ccc2OC[C@H](C)N(Cc2ccncc2)C[C@H]1C,15.5,9.5
COc1cccc(NC(=O)N2CC(=O)N3[C@H](C2)[C@@H](c2ccc(C#CC4CCCC4)cc2)[C@@H]3CO)c1,-18.9,-18.1
C[C@@H]1CN([C@@H](C)CO)C(=O)Cc2cc(NC(=O)Nc3ccccc3)ccc2O[C@H]1CN(C)Cc1ccc(Cl)c(Cl)c1,?,.

Further entries follow:
SMILES,Vaccinia inh,Vaccinia inh Venus
CO[C@H]1CN(C)C(=O)c2cc(NC(=O)Nc3ccccc3)ccc2OC[C@@H](C)N(C(=O)Nc2c(C)noc2C)C[C@H]1C,11.9,20.2
CC(C)NC(=O)N(C)C[C@H]1Oc2ccc(NC(=O)CCCCCC(=O)Nc3ccccc3N)cc2C(=O)N([C@H](C)CO)C[C@H]1C,6.5,2.4
CCCNC(=O)N1CCC2(CC1)CN(C(=O)COC)[C@H](CO)c1[nH]c3cc(OC)ccc3c12,13.7,4.4
CN1c2ccc(-c3ccccc3F)cc2[C@H]2[C@H](CCN2C(=O)c2ccccn2)[C@@H]1CO,-12.8,-7.6
COc1cccc(S(=O)(=O)N[C@H]2CC[C@@H](CCn3cc(-c4ccccc4)nn3)O[C@H]2CO)c1,-17.4,-7.5
COc1ccc(S(=O)(=O)N(C)C[C@@H]2Oc3ncccc3C(=O)N([C@H](C)CO)C[C@@H]2C)cc1,7.9,12.9
COc1ccc(CN(C)C[C@H]2Oc3ccc(NC(=O)NC(C)C)cc3CC(=O)N([C@H](C)CO)C[C@H]2C)cc1,2.7,-6.1
C[C@@H]1CN([C@@H](C)CO)C(=O)c2cccc(NC(=O)c3ccc(-c4nccs4)cc3)c2O[C@H]1CN(C)C(=O)Nc1ccc2c(c1)OCO2,10.3,1.5
C[C@H]1CCCCO[C@@H](CN(C)C(=O)CCCN(C)C)[C@@H](C)CN([C@@H](C)CO)C(=O)c2cc(NC(=O)Nc3ccccc3)ccc2O1,1.7,-2.3
C[C@@H]1CCCCO[C@H](CN(C)S(=O)(=O)c2ccc(F)cc2)[C@@H](C)CN([C@H](C)CO)C(=O)c2cc(NS(=O)(=O)c3cccs3)ccc2O1,16.7,13.3
CO[C@H]1CC[C@@H]2CCN(C)C(=O)[C@@H](C)[C@H](OC)CN(C)C(=O)c3cccc(C#N)c3OC[C@H]1O2,7.8,3.6
CN(C)C(=O)c1ccc(-c2ccc3c(c2)[C@H]2[C@H](CCN2C(=O)C2CCCCC2)[C@@H](CO)N3C)cc1,?,.
CCC(=O)Nc1ccc2c(c1)C(=O)N(C)[C@H]1CC[C@@H](CC(=O)N[C@@H](C)c3ccccc3)O[C@@H]1CO2,5.6,4.2
C[C@@H]1CN([C@H](C)CO)C(=O)c2cc(NC(=O)CCCN(C)C)ccc2O[C@@H]1CN(C)S(=O)(=O)c1ccccc1,4.6,-0.4
COc1cccc(CNC(=O)C[C@H]2CC[C@H](NC(=O)C3CCOCC3)[C@@H](CO)O2)c1,4.1,6.4
COc1ccc(NC(=O)N2CC(=O)N3[C@H](CO)[C@H](c4ccc(C#CCC5CCCC5)cc4)[C@@H]3C2)cc1,?,.
C[C@H]1CN([C@@H](C)CO)C(=O)c2cccc(NC(=O)Nc3ccccc3)c2O[C@H]1CN(C)C(=O)Nc1ccc(C(F)(F)F)cc1,?,.
O=C(C[C@H]1C=C[C@H](NC(=O)C2CC2)[C@@H](CO)O1)Nc1nccs1,-1.5,6.5
C[C@@H]1CCCCO[C@@H](CN(C)Cc2ccc3c(c2)OCO3)[C@@H](C)CN([C@@H](C)CO)C(=O)c2cc(NC(=O)Nc3ccc(F)cc3)ccc2O1,?,.
COc1ccc2c3c(n(C)c2c1)[C@H](CO)N(S(=O)(=O)c1ccc(C)cc1)CC31CCN(S(=O)(=O)c2ccc(C)cc2)CC1,-6.9,-14.4
CO[C@H]1O[C@H](CO)[C@@H](OC(=O)Nc2ccccc2-c2ccccc2)[C@H](OC(=O)Nc2ccccc2)[C@H]1OC(=O)Nc1ccccc1,?,.
COCC(=O)N1[C@H](C#N)[C@@H](c2ccccc2C2=CCCCC2)[C@H]1CO,-5.0,-6.1
CCCN(C)C[C@@H]1Oc2cc(-c3cncnc3)ccc2S(=O)(=O)N([C@H](C)CO)C[C@@H]1C,37.4,18.7
O=C(N[C@@H]1C=C[C@@H](CC(=O)N2CCc3ccccc3C2)O[C@H]1CO)C1CC1,8.5,-1.0
COc1ccc(-c2ccc3n(c2=O)C[C@@H]2N[C@H]3[C@H](C(=O)N3CCCCC3)[C@H]2CO)cc1,10.1,14.3
COCC#Cc1ccc2c(c1)O[C@@H](CN(C)C(=O)Nc1ccc(OC)cc1)[C@@H](C)CN([C@@H](C)CO)S2(=O)=O,-23.0,-18.9
CC(C)NC(=O)N1CC2(C1)[C@H](c1ccccc1)[C@H](CO)N2C(=O)C1CCOCC1,2.5,6.3
COc1ccc2c3c([nH]c2c1)[C@H](CO)N(S(C)(=O)=O)CC31CN(CC2CCOCC2)C1,?,.
C[C@@H]1CCCCO[C@@H](CN(C)S(=O)(=O)c2cccs2)[C@H](C)CN([C@@H](C)CO)C(=O)c2cc(NS(=O)(=O)c3cccs3)ccc2O1,?,.
CCC(=O)N1[C@H](C(=O)N2CCc3ccccc3C2)[C@@H](CO)[C@@H]2Cn3c(cccc3=O)[C@@H]21,-8.3,0.2
CC(C)NC(=O)Nc1cccc2c1O[C@@H](CN(C)C(=O)NC(C)C)[C@@H](C)CN([C@@H](C)CO)C2=O,-0.2,0.5
CCC(=O)N1C[C@H](C)[C@H](OC)CN(C)C(=O)c2ccc(NC(=O)COC)cc2OC[C@H]1C,18.0,9.3
COc1ccc(S(=O)(=O)Nc2ccc3c(c2)C(=O)N([C@H](C)CO)C[C@@H](C)[C@H](CN(C)S(=O)(=O)c2ccc(F)cc2)OCCCC[C@@H](C)O3)cc1,?,.
CS(=O)(=O)N1[C@@H](C#N)[C@H](c2ccc(C#CC3CCCC3)cc2)[C@@H]1CO,-8.9,-10.1
CCCNC(=O)N1CC2(CCN(CC3CCCC3)CC2)c2c([nH]c3cc(OC)ccc23)[C@H]1CO,-16.1,-14.3
COc1ccc(S(=O)(=O)Nc2ccc3c(c2)CC(=O)N([C@@H](C)CO)C[C@H](C)[C@@H](CN(C)Cc2ccc(-c4ccccc4)cc2)O3)cc1,?,.
CO[C@H]1CC[C@H]2CCOc3ccc(C#N)cc3C(=O)N(C)C[C@@H](C)C(=O)N(C)C[C@@H]1O2,7.3,3.0
CS(=O)(=O)Nc1ccc2c(c1)[C@H]1C[C@H](CC(=O)NCCc3ccccc3)O[C@H](CO)[C@H]1O2,-4.1,-0.5
COc1cccc(-c2ccc3n(c2=O)C[C@H]2[C@H](CO)[C@@H](C(=O)O)[C@@H]3N2C(=O)c2cnccn2)c1,9.8,8.3
CC(C)(O)C#Cc1ccc([C@@H]2[C@@H](CO)N3CCCCN(C(=O)c4cccc(F)c4)C[C@H]23)cc1,26.9,7.0
C[C@H]1CN([C@@H](C)CO)C(=O)Cc2cc(NC(=O)Cc3cn(C)c4ccccc34)ccc2O[C@@H]1CN(C)Cc1ccc2c(c1)OCO2,-18.9,-10.8
C[C@H](CO)N1C[C@H](C)[C@@H](CN(C)CC2CCCCC2)Oc2ccc(NC(=O)Nc3ccc(C(F)(F)F)cc3)cc2C1=O,6.3,5.7
O=C(C[C@@H]1C=C[C@@H](NC(=O)c2ccccn2)[C@@H](CO)O1)NCc1cc(F)cc(F)c1,11.1,-1.2
COc1cccc(-c2ccc(C3[C@H]4CNC[C@@H]3N4CC3CCCCC3)cc2)c1 (stereo not given in full),-15.0,-1.5
C[C@@H]1CN([C@@H](C)CO)S(=O)(=O)c2ccc(C#CC(C)(C)O)cc2O[C@H]1CN(C)CC1CCCC1,-7.5,-0.9
O=C([C@H]1[C@H](CO)[C@H]2Cn3c(cccc3=O)[C@H]2N1CC1CCCC1)N1CCOCC1,-0.5,24.4
CCCC(=O)Nc1ccc2c(c1)OC[C@@H](C)N(C(C)=O)C[C@@H](C)[C@@H](OC)CN(C)C2=O,4.9,1.9
O=C(c1ccc(F)cc1)N1CC(=O)N2[C@@H](CO)[C@H](c3ccc(-c4ccccc4F)cc3)[C@@H]2C1,-2.1,-0.7
COc1ccc(CN(C)C[C@H]2OCCCC[C@H](C)Oc3ccc(NC(=O)c4ccccc4)cc3C(=O)N([C@@H](C)CO)C[C@@H]2C)cc1,?,.
C[C@@H]1CN([C@H](C)CO)C(=O)c2cc(N(C)C)ccc2O[C@@H]1CN(C)C(=O)Nc1ccc2c(c1)OCO2,0.1,7.3

The listing continues.
SMILES,Vaccinia inh,Vaccinia inh Venus
COc1ccc2c3c(n(C)c2c1)[C@H](CO)N(C(=O)C1CC1)CC31CCN(C(=O)C2CCOCC2)CC1,6.3,3.7
C[C@H]1CN([C@@H](C)CO)C(=O)c2cc(NC(=O)C3CC3)ccc2O[C@H]1CN(C)Cc1ccc(C(=O)O)cc1,6.4,0.0
COc1ccc(NC(=O)N2CCC3(CC2)CN(C(=O)CN2CCOCC2)[C@H](CO)c2[nH]c4cc(OC)ccc4c23)cc1,8.8,5.1
CCC(=O)Nc1ccc2c(c1)OC[C@@H](C)N(C(=O)COC)C[C@H](C)[C@H](OC)CN(C)C2=O,-4.4,-3.8
C[C@@H]1CN([C@H](C)CO)C(=O)c2cc(NC(=O)Nc3ccc4c(c3)OCO4)ccc2O[C@H]1CN(C)Cc1ccc(C(F)(F)F)cc1,-2.4,-6.1

These rows are one share of the data; rates above refer to the full screens.
